# NOD2 RIPK2 PPI: blocks binding of human NOD2 to RIPK2 | O43353 | CHO BLA complementation NOD2-RIPK2, CCF4 ratio | inhibition, % at 4.98 µM | hit rate 0.38% among 360,000 | AID 624267; in the data active means inhibition above about 21%;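 further: 0% = vehicle only and 100% = reference blocker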
# TLR9-MyD88 block: inhibitors of human TLR9-MyD88 binding. CHO BLA complementation TLR9-MyD88, CCF4 FRET ratio. hit rate 0.21% among 340,000. AID 504734. inhibition, % at 4.98 µM. Q9NR96+Q99836;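 active means inhibition above the mean over all tested compounds plus 3 SD, cut at about 21% in these data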;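 further: 0% = DMSO only wells and 100% = clavulanate BLA inhibitor control wells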
# ABCB6 inh 2: human ABCB6 transporter inhibition; Q9NP58; hit rate 0.19% among 360,000; K562-ABCB6 porphyrin accumulation, flow cytometry, 1 h; stronger effect = lower value; fluorescence ratio to DMSO, % at 10 µM;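 active means fluorescence ratio to DMSO below 75%, the collection mean minus 3 SD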;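 further: signal is porphyrin accumulated inside mitochondria; 100% equals median channel fluorescence of DMSO control wells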
# ABHD5 PLIN5 PPI: blocks binding of human ABHD5 to perilipin-5; Q00G26+Q8WTS1; Split G. princeps luciferase complementation, luminescence, 4 h; inhibition, % at 4 µM; hit rate 0.78% among 360,000; AID 602281;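 active means inhibition above the mean inhibition across every tested compound plus 3 SD, cut at about 22% in these data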;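 further: 0% = DMSO only wells and the 100% control is not disclosed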
# HTR2A ag: activates the mouse 5-HT2A serotonin receptor | hit rate 0.66% among 360,000 | P35363 | AID 624169 | CHO-K1 mHTR2A beta-arrestin complementation, luminescence; percent of 30 µM serotonin response | activation, % at 7.6 µM;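 active means activation above a run cutoff, the mean activation of all tested compounds plus 3 SD, cut at about 14% in these data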;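 further: 0% = plate median of compound wells and 100% = 30 µM serotonin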
# Starred values were filed as active, the others as inactive; nt = not tested or not shown; & = joins results of further samples.
(1) CN(C)CCOC(c1ccccc1)c1ccccc1
(2) CCOC(=O)c1c(C)oc2ccc(O)cc12
(3) O=C1NC(=S)SC1=Cc1ccccn1
(4) CC(C)(C)NC(=O)[C@@H]1C[C@@H]2CCCC[C@@H]2CN1C[C@@H](O)[C@H](Cc1ccccc1)NC(=O)[C@H](CC(N)=O)NC(=O)c1ccc2ccccc2n1
(5) CCCCNc1ccc(C(=O)O)cc1
(6) Cc1cc(NS(=O)(=O)c2ccc(N)cc2)no1

Compound,1,2,3,4,5,6
NOD2 RIPK2 PPI,2&4,-12,-12,-8&-5,-8,-4
TLR9-MyD88 block,6&-2,-2,nt,8&-13,1,0
ABCB6 inh 2,99&90,97,101,100&97,93,103
ABHD5 PLIN5 PPI,-11&5,4,1,8&-8,-10,-4
HTR2A ag,-11&-4,8,0,8&1,6,0

# In a second layout: results already given.
# Values run as follows: NOD2 RIPK2 PPI, TLR9-MyD88 block, ABCB6 inh 2, ABHD5 PLIN5 PPI, HTR2A ag
1	CN(C)CCOC(c1ccccc1)c1ccccc1
  2&4, 6&-2, 99&90, -11&5, -11&-4
2	CCOC(=O)c1c(C)oc2ccc(O)cc12
  -12, -2, 97, 4, 8
3	O=C1NC(=S)SC1=Cc1ccccn1
  -12, nt, 101, 1, 0
4	CC(C)(C)NC(=O)[C@@H]1C[C@@H]2CCCC[C@@H]2CN1C[C@@H](O)[C@H](Cc1ccccc1)NC(=O)[C@H](CC(N)=O)NC(=O)c1ccc2ccccc2n1
  -8&-5, 8&-13, 100&97, 8&-8, 8&1
5	CCCCNc1ccc(C(=O)O)cc1
  -8, 1, 93, -10, 6

# The list continues.
(7) COc1ccc(Cn2cc(C(=O)O)c(=O)c3ccccc32)cc1
(8) Cc1nn(-c2ccccc2)c(Cl)c1/C=N/NC(=O)c1ccncc1
(9) CCOC(=O)N1CCC(=C2c3ccc(Cl)cc3CCc3cccnc32)CC1
(10) O=C(O)C1CCN(S(=O)(=O)/C=C/c2ccccc2)CC1
(11) Cc1ccccc1Nc1nc(N)nc(C)c1Br
(12) CS(=O)(=O)c1ccc([C@@H](O)[C@@H](CF)NC(=O)C(Cl)Cl)cc1
(13) COc1c2occc2cc2ccc(=O)oc12
(14) CC(C)(C(=O)O)c1ccc([C@H](O)CCCN2CCC(C(O)(c3ccccc3)c3ccccc3)CC2)cc1
(15) Cc1cc(C)c(CNC(=O)c2cc(C3CC3)nc3c2cnn3C(C)C)c(=O)[nH]1

Compound,7,8,9,10,11,12,13,14,15
NOD2 RIPK2 PPI,5,-9,-5,4,-3,-4,-5,-14,-2
TLR9-MyD88 block,1,-2,-5,-7,1,6,-13,11,-11
ABCB6 inh 2,102,99,94,99,95,96,99,103,101
ABHD5 PLIN5 PPI,-4,4,-1,8,7,-5,1,-2,3
HTR2A ag,1,4,0,0,-2,3,-2,-6,0

# Fetched one by one from the entries so far, two records:
(10) O=C(O)C1CCN(S(=O)(=O)/C=C/c2ccccc2)CC1
(14) CC(C)(C(=O)O)c1ccc([C@H](O)CCCN2CCC(C(O)(c3ccccc3)c3ccccc3)CC2)cc1

Compound,10,14
NOD2 RIPK2 PPI,4,-14
TLR9-MyD88 block,-7,11
ABCB6 inh 2,99,103
ABHD5 PLIN5 PPI,8,-2
HTR2A ag,0,-6

# Some of the compounds tested; the hit share may differ from the screen's.
